Screens from PubChem.
Rango complex inh = inhibitors of Rango-importin beta complex formation | Rango CFP/YFP FRET sensor + importin beta, 45 min | AID 540263 | 340,000 compounds, 0.031% hits | Potency, µM (series often up to 92.2 µM), inactives show at the highest dose inhibition of complex formation | Q14974; active = rising FRET ratio curve, often small or poorly fitted; inconclusive = mostly compound fluorescence or quenching in the first reads; inactive = flat curves in all reads;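 also: potency is read from the fitted curve at half-maximal effect; 0% = DMSO wells and 100% = buffer wells lacking importin beta; nearly all actives have a fitted effect of over 15% in size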
Target sequence (Q14974 whole entry, looked up): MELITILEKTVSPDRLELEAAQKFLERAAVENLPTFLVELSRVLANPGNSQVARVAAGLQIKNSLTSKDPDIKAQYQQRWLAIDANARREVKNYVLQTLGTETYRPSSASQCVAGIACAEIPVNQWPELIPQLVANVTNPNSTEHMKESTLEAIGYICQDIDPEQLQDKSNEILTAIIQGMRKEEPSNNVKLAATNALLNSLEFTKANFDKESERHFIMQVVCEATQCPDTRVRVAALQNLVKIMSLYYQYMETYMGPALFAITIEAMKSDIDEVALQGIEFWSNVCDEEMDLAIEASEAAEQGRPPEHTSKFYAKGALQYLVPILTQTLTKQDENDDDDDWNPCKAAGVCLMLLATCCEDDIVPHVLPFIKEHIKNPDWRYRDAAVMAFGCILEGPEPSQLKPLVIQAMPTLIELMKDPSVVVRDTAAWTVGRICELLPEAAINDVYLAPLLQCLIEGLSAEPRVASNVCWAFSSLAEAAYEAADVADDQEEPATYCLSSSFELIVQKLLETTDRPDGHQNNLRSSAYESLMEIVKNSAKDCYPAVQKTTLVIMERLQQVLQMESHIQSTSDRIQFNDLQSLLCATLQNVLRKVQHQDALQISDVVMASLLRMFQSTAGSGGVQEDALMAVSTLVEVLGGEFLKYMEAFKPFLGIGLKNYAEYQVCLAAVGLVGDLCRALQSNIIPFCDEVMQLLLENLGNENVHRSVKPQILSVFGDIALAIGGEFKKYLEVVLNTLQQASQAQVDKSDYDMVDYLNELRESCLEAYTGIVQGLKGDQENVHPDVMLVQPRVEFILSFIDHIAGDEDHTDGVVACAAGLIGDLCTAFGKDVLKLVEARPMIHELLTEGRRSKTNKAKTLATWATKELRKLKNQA
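FRET biosensor Rango (snurportin 1 IBB between N-terminal EYFP and C-terminal Cerulean), 50 nM in PBS/1 mM DTT/0.02% Tween-20/0.1% BSA, preincubated 5 min RT with compound; 0.125 microM importin beta added, 45 min RT, CFP/YFP FRET ratio read.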
Rango release inh = prevents RanGTP from dissociating the Rango-importin beta complex | O95149+P62826 | Biochemical FRET Rango-importin beta, RanGTP-induced dissociation | Potency, µM (titrated, usually from 46.1 µM), without a hit: at the top dose activity change, negative = inhibition | 340,000 compounds, 0.071% hits | AID 540253; active means falling FRET ratio curve, often poorly fitted, with flat reads before Ran was added; inconclusive means other falling curves, or compound fluorescence or quenching; inactive means flat or rising ratio curve;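 also: potency is read from the fitted curve at half-maximal effect; % of control where 0% means no effect; nearly all actives have a fitted effect of over 45% in size; -100% = wells without RanGTP and RCC1; the record marks most hits as doubtful in a second field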
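Compounds preincubate 5 min with complex of recombinant Rango and importin beta in PBS with 1 mM DTT. Ran (0.6 uM) loaded with 2 mM GTP plus 0.2 uM RCC1 starts dissociation; FRET is recorded 45 min later.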
miR-21 reporter = raises the signal of a miR-21 reporter; HeLa miR-21 FLuc reporter, luciferase, 48 h; Potency, µM (top dose mostly 38.3 µM), for inactives: at the top dose reporter change, positive = more light; 340,000 tested, under 10 active; AID 2288; active = well fitted rising curve with a large enough effect; inconclusive = small, poorly fitted or top-dose-only effect; inactive = no such curve, though single readings can be large or run the other way;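 also: % of control where 0% means no effect; miR-21 action dims this reporter so a rising signal means less miR-21 action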
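Using DMEM plus 10% FBS, HeLa miR-21-FLuc cells are incubated with test compounds (final up to about 40uM) for 48 hours; firefly luciferase signal is then imaged following reagent-mediated lysis.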
GLA inh pH 4.5 = inhibitors of human alpha-galactosidase A at pH 4.5; P06280; purified enzyme, 4-MU-alpha-Gal fluorescence, pH 4.5; activity change, negative = inhibition, % at 105 µM; 230,000 tested, under 10 active; AID 1467; inconclusive = small, poorly fitted or top-dose-only inhibition, or a rising curve; inactive = flat fitted curve, though single readings scatter; no compound was filed as active;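 also: 0% = full activity with enzyme and -100% = basal without enzyme; dose as in the result columns while the protocol names 77 µM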
* = called active by the depositor; ? = inconclusive; . = not tested or not shown; & = joins results of further samples. This is a subset; count on the stated rates, not on these rows.

SMILES	Rango complex inh	Rango release inh	miR-21 reporter	GLA inh pH 4.5
O=C(CN1C(=O)NC2(CCCc3ccccc32)C1=O)c1ccccc1F (stereo not drawn)	-0.2%	-8%	.	.
CC(=O)N(/N=C/c1ccc(C)cc1)c1nc(CCl)cs1	-1.7%	-3%	-17%	.
COc1ccc(S(=O)(=O)N2CCN(C(=O)c3cc(C)oc3C)CC2)cc1	0.7%	?	-2%	6
CCN1C(=O)[C@H]2[C@@H](c3ccc(-c4ccc(OC)cc4)cc3)N[C@@](CC(C)C)(C(=O)OC)[C@H]2C1=O	2.7%	3%	.	.
CCCn1c(N)[n+](CC(=O)c2ccco2)c2ccccc21	-0.5%	-3%	0%	10
CCOC(=O)C(Sc1n[nH]c(N)n1)c1ccccc1 (stereo not drawn)	0.1%	-12%	-1%	3
CCN1CCN(c2ncnc3scc(-c4ccc(C)cc4)c23)CC1	?	-15%	2%	.
COc1cc2c(cc1OC)C(C)=NCC2	-2.3%	-4%	1%	3
COc1ccc(CSc2ccc(-c3nc4ccccn4c3NCc3ccccc3)cc2OC)cc1	?	?	.	.
Cn1c(CNc2nc3ccccc3n2CCN2CCCCC2)nc2ccccc21	0.5%	1%	-16%	2
O=C(NCc1ccncc1)c1cnccn1	1.5%	-11%	-1%	-16
COc1ccc(-c2c(C(=O)O)c(C(=O)O)c3n2CCC3)cc1	1.7%	2%	-24%	.
O=C(CN1CCCC1)Nc1nnc(-c2cccs2)s1	-1.0%	-1%	-21%	5
COc1cc(OC)c(C(=O)/C=C/c2ccc(OCc3ccccc3)c(OC)c2)c(OC)c1	3.0%	-12%	26%	.
Cc1ccc2c(COC(=O)CC3Sc4ccccc4NC3=O)cc(=O)oc2c1C (stereo not drawn)	1.5%	-11%	-4%	-5
COc1ccc(CCNC(=O)CCCn2nc(C)n3ccnc3c2=O)cc1OC	-0.4%	18%	-6%	.
CCN1/C(=C/c2ccc3ccccc3[n+]2CCCS(=O)(=O)[O-])C=Cc2cc(C)ccc21	?	5%	9%	.
O=C(CNC(=O)c1ccc(Br)o1)Nc1ncccc1O	5.1%	-1%	.	.
Cc1cccc(N2CCc3c2nc2ccc(Br)cc2c3N)c1	1.2%	22%	-29%	-7
Cc1cc(Nc2ccc3ccccc3c2)n2ncnc2n1	0.0%	-11%	-36%	5

Structural class, the compounds so far with an aryl methoxy group (seven)
SMILES	Rango complex inh	Rango release inh	miR-21 reporter	GLA inh pH 4.5
COc1ccc(S(=O)(=O)N2CCN(C(=O)c3cc(C)oc3C)CC2)cc1	0.7%	?	-2%	6
CCN1C(=O)[C@H]2[C@@H](c3ccc(-c4ccc(OC)cc4)cc3)N[C@@](CC(C)C)(C(=O)OC)[C@H]2C1=O	2.7%	3%	.	.
COc1cc2c(cc1OC)C(C)=NCC2	-2.3%	-4%	1%	3
COc1ccc(CSc2ccc(-c3nc4ccccn4c3NCc3ccccc3)cc2OC)cc1	?	?	.	.
COc1ccc(-c2c(C(=O)O)c(C(=O)O)c3n2CCC3)cc1	1.7%	2%	-24%	.
COc1cc(OC)c(C(=O)/C=C/c2ccc(OCc3ccccc3)c(OC)c2)c(OC)c1	3.0%	-12%	26%	.
COc1ccc(CCNC(=O)CCCn2nc(C)n3ccnc3c2=O)cc1OC	-0.4%	18%	-6%	.

Later entries.
SMILES	Rango complex inh	Rango release inh	miR-21 reporter	GLA inh pH 4.5
O=C(CC1C(=O)NCCN1C(=O)Nc1ccccc1)Nc1cc(Cl)ccc1Cl (stereo not drawn)	5.9%	0%	-2%	-6
O=C(NCCC(=O)N(CCc1ccccc1)Cc1ccccc1)c1ccc([N+](=O)[O-])cc1	-2.1%	5%	.	.
O=C(Nc1cccc2c1C(=O)NC2=O)c1ccc(S(=O)(=O)N2CCCC2)cc1	?	?	-7%	2
Cc1cc(=O)[nH]c(N/N=C/c2cccs2)n1	2.0%	-3%	-17%	-3
C=CCn1c(SCC(=O)Nc2sccc2C#N)nc2sc(C)c(C)c2c1=O	2.5%	3%	-20%	6
CCOC(=O)Cn1c2ccccc2n2nc(CCC(=O)O)c(=O)nc12	-4.1%	-11%	-6%	3
COc1ccc(-c2c(C#N)c(C)nc3c2C(=O)c2ccccc2-3)cc1	-0.6%	8%	-1%	-7
Cc1ccc2oc(=O)n(CCC(=O)Nc3ccc(N4CCOCC4)cc3)c2c1	4.6%	12%	-3%	.
O=C(Nc1ccc2c(c1)OCO2)C1CCCN1C(=O)Nc1ccccc1 (stereo not drawn)	-3.1%	6%	-7%	.
Nc1ccc2c(c1)nnn2-c1ccccc1	0.3%	-7%	-37%	0
CCCn1c(C)cc(=O)c2cc(NC(=O)c3ccccn3)ccc21	-0.2%	7%	5%	5
COc1cc(OC)cc(-c2oc(=O)c3cc(OC)c(OC)cc3c2C#CCCCO)c1	-2.6%	?	.	.
CCN(CC)c1nc(C#N)cc(-c2ccc(OC)cc2)n1	?	-14%	20%	0
Cc1ccn2c(NC3CCCCC3)c(C)nc2c1	-1.4%	1%	1%	0
CCn1c(=O)c(C(=O)NNS(=O)(=O)c2ccc(Cl)cc2)c(O)c2ccccc21	-2.3%	-8%	-3%	9
COc1cc(/C=N/Nc2nc3ccccc3[nH]c2=O)ccc1O	0.2%	5%	-18%	-9
CCOc1ccccc1NS(=O)(=O)N(C)C	-0.5%	-5%	1%	4
CCN1C(=O)CC(C(=O)NC)SC1=Nc1cc(Cl)c(O)c(Cl)c1 (stereo not drawn)	-1.4%	2%	1%	2
Nc1ccc2nc(Cc3ccccc3)[nH]c2c1	?	0%	-11%	-11
O=C(Nc1ccccc1OC(F)F)C1CCCN1C(=O)c1cccs1 (stereo not drawn)	-2.3%	10%	-4%	4
NC(=O)COC(=O)c1oc2ccccc2c1CSc1ccc(Cl)cc1	0.7%	0%	-7%	0
CCCOc1ccc(N2C(=O)C3ON(c4ccccc4)C(CCC)C3C2=O)cc1 (stereo not drawn)	2.3%	-7%	-1%	-16
O=C(CNC(=O)c1ccccc1)OC(C(=O)Nc1cc(C(F)(F)F)ccc1Cl)c1ccccc1 (stereo not drawn)	3.5%	-7%	-17%	-4
N#Cc1ccccc1NC(=O)COc1ccccc1C(=O)Nc1ccccc1	-0.3%	2%	.	.
O=C(CCC(NC(=O)OCc1ccccc1)C(=O)OCc1ccccc1)NCC(=O)OCc1ccccc1 (stereo not drawn)	-1.4%	0%	0%	-6
Cc1ccc(Cn2c(-n3nc(C)cc3C)nc3c2c(=O)[nH]c(=O)n3C)cc1	-1.1%	-13%	-8%	5
O=C(NC1CCCCC1)c1cc(-c2ccc(F)cc2)on1	2.4%	8%	-17%	.
CCOC(=O)C1CCCN(S(=O)(=O)c2ccc3c(c2)C(C)(C)C(=O)N3C)C1 (stereo not drawn)	-1.3%	7%	5%	.
CSCC[C@H](NC(=O)OC(C)(C)C)C(=O)N1CCC(C(=O)N[C@@H](C)C(=O)NCc2ccc(F)cc2)CC1	-1.2%	-13%	0%	.
CCCOC(=O)c1c(NC(=O)c2cnn3c2NC(c2ccccc2)CC3C(F)(F)F)sc2c1CCCC2 (stereo not drawn)	3.0%	15%	-5%	2
Cc1cc2nc(NC3=NCN(CCN4CCOCC4)CN3)nc(C)c2cc1C	.	.	-11%	5
O=C(c1ccccc1)c1ccc(OCC(O)CN2CCN(S(=O)(=O)N3CCCCC3)CC2)cc1 (stereo not drawn)	-0.8%	1%	29%	-7
COc1ccc(NC(=O)CSc2nnc(NC(=O)CN3CCOCC3)s2)cc1	-3.7%	-10%	-2%	2
CC(=O)NCCc1c(C)n(Cc2ccccc2)c2ccccc12	-2.1%	-15%	-9%	.
COc1cc(/C=C2\SC(=S)N(NC(=O)c3ccccc3O)C2=O)ccc1O	?	-3%	-5%	.
CCOC(=O)c1sc2ncn(C(C)C(=O)OC)c(=O)c2c1C (stereo not drawn)	0.6%	1%	-13%	4
Cc1ccc(C)c(NC(=O)CN(C)C(=O)C2COc3ccccc3O2)c1 (stereo not drawn)	0.4%	-4%	.	.
CCCCNC(=O)Nc1ccc2c(c1)N(C)C(=O)c1ccccc1S2	-0.6%	-7%	1%&-14%	.
CCCCCn1c(=O)[nH]c2cc(C(=O)NCCCN3CCCCC3C)ccc2c1=O (stereo not drawn)	-0.4%	4%	0%	.
CC1CCCCN1C(=O)CSc1nnc(CSc2ncccn2)n1C (stereo not drawn)	1.9%	-1%	-2%	-1
O=C(Cn1c(=O)oc2cc(S(=O)(=O)NCc3ccccc3)ccc21)N1CCCC1	-0.9%	5%	-1%	7
C=C1C2(C(=O)Nc3nccs3)CCC(C2)C1(C)C (stereo not drawn)	0.0%	0%	7%	0
O=C(CSc1nc(O)cc(=O)n1-c1ccccc1)Nc1ccc(Br)cn1	1.9%	2%	3%	9
CCSc1nc2sc3c(c2c(=O)n1-c1ccccc1C)CCN(C)C3	?	-22%	-10%	.
CCC(C)NC(=O)c1ccccc1NC(=O)c1ccc(CSc2ccc(C)cc2)cc1 (stereo not drawn)	-4.0%	-5%	-6%	-16
C/C(=N/NC(=O)C1CCCCC1)c1ccc([N+](=O)[O-])cc1	0.7%	0%	-18%	3
O=C(NCc1ccccc1Cl)C1CCCO1 (stereo not drawn)	2.8%	1%	0%	-2
CCN(CC)C(=O)Cn1cnc2c1c(=O)n(C)c(=O)n2C	1.6%	19%	1%	3
Cc1ccc(C)c(NC(=O)NNC(=O)CCc2ccccc2)c1	0.2%	13%	-2%	.
O=c1[nH]c(SCc2ccccc2Cl)nc2c1CCCC2	1.9%	15%	-2%	4
The list goes on:
SMILES	Rango complex inh	Rango release inh	miR-21 reporter	GLA inh pH 4.5
O=c1ccn(-c2cccc(C(F)(F)F)c2)nc1-c1ccn(-c2ccccc2F)n1	1.1%	-8%	20%	5
COc1ccc(C(=O)N/N=C/c2cc3ccccc3[nH]c2=S)cc1	9.2%	0%	1%	-13
Cc1ccc(S(=O)(=O)N2CCOCC2)cc1NC(=O)CNCc1cccnc1	-1.0%	-2%	0%	2
CCCOc1ccc(N2CC(C(=O)Nc3ccccc3C(=O)NC)CC2=O)cc1 (stereo not drawn)	-2.7%	24%	0%	11
O=C(CCCc1ccccc1)Nc1nnc(C(F)(F)F)s1	-3.4%	-4%	3%	-10
Cc1onc(-c2c(F)cccc2Cl)c1C(=O)Nc1ccc(S(=O)(=O)Nc2ncccn2)cc1	-0.1%	-6%	-1%	2
CCOC(=O)N1CCN(C(=O)C(c2ccccc2)c2ccccc2)CC1	0.7%	3%	-1%	11
COc1ccc(C2CC(=O)Oc3cc(OC)c(OC)c(OC)c32)cc1 (stereo not drawn)	3.9%	-1%	.	-7
COc1ccc(-c2nc3n(n2)C(c2ccccc2)C2=C(CCCC2=O)N3)cc1OC (stereo not drawn)	-0.3%	3%	-17%	-24
Fc1ccccc1NC(=S)N(CCCN1CCOCC1)Cc1cccnc1	4.7%	-10%	3%	0
CC(C)(C)S(=O)N1Cc2cc(CO)cc(CCO)c2[C@@H]1CCO (stereo partly drawn)	2.0%	1%	.	.
O=C(O)c1cccnc1SC1CC(=O)N(c2cccc3ccccc23)C1=O (stereo not drawn)	.	.	-2%	3
O=[N+]([O-])c1ccccc1OCCCOc1cccc2cccnc12	-0.9%	11%	-63%	.
Cc1nc2c(-c3ccc(F)cc3)c(C)nn2c(C)c1CCC(=O)N1CCN(c2ccccn2)CC1	4.0%	-9%	-6%	-2
CCOc1ccc(S(=O)(=O)NCCN2CCOCC2)c2ccccc12	1.5%	-14%	-3%	-2
CCN1CCN(C(=O)C(C)Nc2cc(Cl)c(OC)cc2OC)CC1 (stereo not drawn)	0.7%	-3%	8%	2
Cc1ccccc1NC(=O)c1ccc(-c2ccc(Cl)cc2Cl)o1	3.7%	-3%	-26%	-4
S=C(Nc1ccc(Cl)cc1)NC1CC2CCCC(C1)N2C1CCCC1 (stereo not drawn)	1.7%	-3%	0%	-3
CC1=NN(C(=O)CCc2ccc3c(c2)OCO3)C(O)(C(F)(F)F)C1 (stereo not drawn)	-0.4%	11%	-6%	14
